From PubChem BioAssay
HCMV UL50-53 inh: inhibitors of HCMV UL50-UL53 nuclear egress complex interaction; HTRF UL50-UL53 interaction, normalized percent inhibition; inhibition, % (test concentration not listed); hit rate 0.15% among 190,000;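 active means both replicates at 50% or more, plus weaker picks with an unusually low signal ratio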;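 further: stock transfer was 100 nL into about 20 µL; 0% = negative control wells and 100% = wells with untagged competitor protein; inactives centre near -12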
GIV-Gai inh: inhibitors of GIV GBA-motif binding to rat Galpha-i3 | P08753 | hit rate 0.42% among 210,000 | AID 1224905 | Galpha-i3/FITC-GIV peptide fluorescence polarization, 90 min; active compounds read low; scaled: aluminum fluoride 0%, vehicle 100% | percent of control (FP), % (concentration not given with the values);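 active means replicate mean at 85% of control or lower, very high polarization wells dropped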;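 further: wells of about 15 µL received 100 nL stock; the first replicate is given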
Target sequence (P08753 whole entry, looked up): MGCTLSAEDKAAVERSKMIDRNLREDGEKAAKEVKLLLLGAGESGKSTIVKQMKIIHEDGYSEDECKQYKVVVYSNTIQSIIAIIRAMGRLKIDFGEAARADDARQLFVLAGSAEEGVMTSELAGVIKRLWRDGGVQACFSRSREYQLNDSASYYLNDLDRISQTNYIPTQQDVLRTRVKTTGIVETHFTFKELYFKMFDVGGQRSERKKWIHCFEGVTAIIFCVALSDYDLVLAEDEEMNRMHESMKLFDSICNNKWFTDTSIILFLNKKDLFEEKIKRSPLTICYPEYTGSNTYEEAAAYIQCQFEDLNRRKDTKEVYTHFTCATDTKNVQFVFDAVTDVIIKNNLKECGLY
Sa growth 42C: inhibitors of Staphylococcus aureus growth at 42 °C. relative growth, % (no concentration beside the values). hit rate 0.53% among 170,000. S. aureus RN4220 growth, OD600, 20 h; active compounds read low. AID 720641;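 active means growth at 42 °C up to 50% and 20 or more points under that at 30 °C, or under 10% at both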;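 further: 300 nL library stock went into each well; scaled to the means of positive and negative controls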
Sa growth 42C second temp: also measured in Sa growth 42C; calls as there; relative growth, %; measured here: growth at 30 °C;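 optical density after 20 h as mean of two plates; 100% = untreated growth and lower means inhibition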
* = called active by the depositor; . = no result given; & = joins results of further samples.

Assay codes: A = HCMV UL50-53 inh; B = GIV-Gai inh; C = Sa growth 42C; D = Sa growth 42C second temp
Cc1noc(-c2ccc(-c3noc(-c4ccc(F)cc4)n3)cc2)n1
  A = .	B = 101.1&99.8	C = 94.1	D = 94.0
O=C(COC(=O)c1ccc(Cl)cc1NC(=O)c1ccc(Cl)cc1)c1ccccc1
  A = -43.0	B = 97.2	C = 98.5	D = 86.5
CC(C)(C)c1ccc(NC(=O)c2ccc(C(C)(C)C)s2)cc1
  A = -47.4	B = 103.6	C = 89.4	D = 89.3
O=C(c1cc2c(s1)-c1ccccc1OC2)N1CCN(c2ccccc2F)CC1
  A = -15.6	B = 103.1	C = 112.9	D = 98.8
CCOc1ccc2oc(=O)cc(CN(C)Cc3ccccc3)c2c1
  A = -10.3	B = 98.2	C = 79.5	D = 73.4
Cc1nc2ccc3nc(NC(=O)c4ccc(S(=O)(=O)N5CCCC5)cc4)sc3c2s1
  A = 11.7	B = 105.8	C = .	D = .
COc1cccc(-c2cc(C(=O)Nc3ccncc3)c3ccccc3n2)c1
  A = -2.8	B = 102.8	C = .	D = .
CCc1nc(-c2ccc(C(=O)NCC(=O)Nc3ccc(Cl)cc3C)cc2)no1
  A = -31.8	B = 103.4	C = .	D = .
Cc1ccc(OCC(=O)NN)cc1
  A = -4.2	B = 101.5	C = 92.9	D = 82.3
O=c1c(N2CCOCC2)csc2ccccc12
  A = -32.3	B = 101.4	C = .	D = .
CC12CCC(c3c(COC(=O)c4ccco4)nn(-c4ccccc4)c31)C2(C)C (stereo unspecified)
  A = -6.2	B = .	C = 102.0	D = 97.4
Cc1cc(C)n2cc(CN)nc2n1
  A = 0.1	B = .	C = 99.2	D = 100.1
Cc1nc(N2CCCC(C(=O)NC3CCS(=O)(=O)C3)C2)c2c(C)c(C)oc2n1 (stereo unspecified)
  A = -14.6	B = 100.7	C = .	D = .
N#Cc1nccnc1N1CCN(c2ccccc2)CC1
  A = -48.6	B = 98.0	C = 117.0	D = 82.7
CCCNC(=O)c1ccc(CN2CC(=O)N3CCCCC3C2=O)cc1 (stereo unspecified)
  A = 12.9&-10.3	B = 103.2&101.4	C = 103.1	D = 103.5
O=C(Cn1ccn(-c2cccc3ccccc23)c(=O)c1=O)NCc1ccco1
  A = -45.1	B = 103.0	C = 87.1	D = 84.1
Cc1ccc(CN2CCCn3nc(C(=O)NCc4ccc(OC(C)C)cc4)cc3C2=O)cc1
  A = .	B = 99.0	C = 76.9	D = 87.7
O=c1c2ccccc2ncn1Cc1noc(-c2cnccn2)n1
  A = -75.8	B = 98.3	C = .	D = .
CC(C)C(=O)Oc1cccc(-n2cnnn2)c1
  A = -10.6	B = 92.3	C = .	D = .
CN(C)C(=O)c1ccc2c(c1)N(CC(=O)N1CCCC1)C(=O)CO2
  A = -22.1	B = 99.6	C = .	D = .
CSC(=N)N
  A = -17.1&-17.1&-26.7	B = 101.1	C = .	D = .
C=CCOc1ccc2[nH]c(C)c(C(=O)OCC)c2c1
  A = -5.1	B = 101.2	C = 83.7	D = 69.2
COc1ccc(-c2[nH]ncc2C(=O)NCCC(C)C)cc1
  A = .	B = 99.7	C = 78.7	D = 84.9
N#Cc1cc(-c2ccccc2)c[nH]c1=O
  A = -68.1	B = 102.1	C = .	D = .
Cc1cc(C)cc(OCC(=O)Nc2cccc3cccnc23)c1
  A = -33.1	B = 103.1	C = 96.2	D = 89.1

Some of these compounds in order of formula weight, smallest number first.
Assay codes: A = HCMV UL50-53 inh; B = GIV-Gai inh; C = Sa growth 42C; D = Sa growth 42C second temp
Cc1ccc(OCC(=O)NN)cc1
  A = -4.2	B = 101.5	C = 92.9	D = 82.3
C=CCOc1ccc2[nH]c(C)c(C(=O)OCC)c2c1
  A = -5.1	B = 101.2	C = 83.7	D = 69.2
O=C(c1cc2c(s1)-c1ccccc1OC2)N1CCN(c2ccccc2F)CC1
  A = -15.6	B = 103.1	C = 112.9	D = 98.8

(next part)
Assay codes: A = HCMV UL50-53 inh; B = GIV-Gai inh; C = Sa growth 42C; D = Sa growth 42C second temp
CC1=Nc2cc(C(=O)NCc3ccc(C)cc3)ccc2Sc2ccccc21
  A = .	B = 103.0	C = 118.2	D = 87.6
CCOc1ccc(CNC(=O)CCc2c(C)nn(-c3ccc(N4CCCCC4)nn3)c2C)cc1
  A = .	B = 98.2	C = 98.7	D = 92.3
CCOC(=O)c1c(Nc2nc(-c3cc4ccccc4o3)cs2)sc(C)c1C
  A = -0.2	B = .	C = 77.8	D = 87.0
c1ccc(CN2CCC(n3c(-c4ccccc4)nc4cccnc43)CC2)cc1
  A = -7.5	B = 120.0	C = .	D = .
O=C(c1ccc2nc3ccc(Cl)cc3c(=O)n2c1)N1CCCCCC1
  A = -65.5	B = 104.8	C = 86.0	D = 87.0
Cc1ccc(C(=O)n2nc(-c3ccco3)nc2NCc2cccs2)cc1
  A = -27.6	B = 102.7	C = 110.0	D = 90.4
CCOC(=O)COc1ccc(F)cc1C(=O)c1ccn2nc(-c3ccccc3)cc2n1
  A = -33.1	B = 94.5	C = .	D = .
CC1(C)CC(=O)C2=C(C1)Nc1ccccc1NC2c1ccccc1F (stereo unspecified)
  A = 1.1	B = 102.8	C = .	D = .
CC(C)(C)c1ccc2c(c1)CN(C1CCCCC1)CO2
  A = .	B = 100.7	C = 99.1	D = 95.8
CCc1ccc(-n2ncc(-c3cc(C(=O)NC4CC4)c4ccccc4n3)c2C)cc1
  A = 6.1	B = 102.6	C = .	D = .
CN1CCN(CCSc2ccc(Cl)cc2)CC1
  A = -23.2	B = .	C = 101.4	D = 78.0
O=C(CN1C(=O)C2C3C=CC(C3)C2C1=O)NCCc1ccccc1 (stereo unspecified)
  A = -13.4	B = 103.8	C = 112.2	D = 99.1
Nc1nonc1NC(=O)CSC1=NCCS1
  A = -3.9	B = .	C = 101.9	D = 86.2
COc1cc(Nc2ncc3c(n2)CCN(S(=O)(=O)c2ccccc2)C3)cc(OC)c1
  A = -1.8	B = 110.5	C = .	D = .
CN(C)S(=O)(=O)c1cccc(C(=O)N2CCc3ccccc3C2)c1
  A = -18.2	B = .	C = 114.3	D = 79.8
CC(C)(C)c1nc2scc(-c3cccs3)c2c(=O)o1
  A = 0.6	B = 99.8	C = .	D = .
COc1cccc(CNC(=O)CCC(=O)N2CC3CCCN3c3ccccc32)c1 (stereo unspecified)
  A = -18.3	B = 106.6	C = 105.9	D = 88.4
Cc1ccccc1C(=O)NNC1=NCCC1
  A = -13.9	B = .	C = 96.7	D = 90.8
O=C1C(c2ccccc2)=C(N=CNO)c2ccccc21
  A = -56.2	B = 101.8	C = 82.6	D = 72.2
Cc1noc(C)c1CCNC(=O)C1CCN(c2ccccc2)C1=O (stereo unspecified)
  A = -23.0	B = 104.8	C = 100.0	D = 89.9
COc1ccc(C2C(C(=O)N3CCN(c4ccc(F)cc4)CC3)CCC(=O)N2c2ccc(OC)cc2)cc1 (stereo unspecified)
  A = -17.1	B = 99.6	C = 97.1	D = 84.4
CCCSc1nc2sc3c(c2c(=O)n1-c1ccc(C)c(Cl)c1)CCN(C(C)=O)C3
  A = -122.4	B = 100.7	C = 101.6	D = 86.9
CCOC(=O)C1=C(C)N=c2s/c(=C\c3cc(Br)cc(OC)c3O)c(=O)n2C1c1ccccc1OC (stereo unspecified)
  A = -30.8	B = 102.5	C = .	D = .
Cc1cccc(Nc2cc(=O)[nH]c(=O)[nH]2)c1C
  A = -4.3	B = .	C = 107.8	D = 82.1
O=C(NC1=NN(c2ccccc2)CC1)Nc1ccccc1F
  A = -11.6	B = .	C = 99.3	D = 95.4
CC(=O)N1N=C(c2cccs2)CC1c1cn(-c2ccccc2)nc1-c1ccc(C)cc1 (stereo unspecified)
  A = -5.9	B = 104.4	C = .	D = .
Cc1csc2nc(COC(=O)c3ccc(NC(=O)C(C)Oc4ccccc4)cc3)cc(=O)n12 (stereo unspecified)
  A = .	B = 112.6	C = 72.8	D = 33.8
CCCn1c(CNC(=O)CC)nc2ccccc21
  A = .	B = 99.5	C = 103.8	D = 86.8
Cc1sc2nc(CC#N)[nH]c(=O)c2c1C
  A = 1.3	B = .	C = 91.5	D = 90.0
CCN1C(=O)/C(=C2\SC(=S)N(C(C)C)C2=O)c2ccccc21
  A = 2.1	B = 98.2	C = 93.2	D = 113.2
O=c1c2ccccc2n2c(=O)n(Cc3cccc(Cl)c3)nc2n1Cc1ccccc1
  A = -33.7	B = 100.0	C = .	D = .
CCc1ccc(NC(=O)N2CCN(C(=O)c3nsc4ccccc34)CC2)cc1
  A = .	B = 99.6&99.6	C = 73.6	D = 88.8
COc1ccc(N2C(=O)CC(Sc3nc4c(cc3C#N)CC(C)CC4)C2=O)cc1 (stereo unspecified)
  A = -21.9	B = 104.7	C = .	D = .
COC(=O)Cn1cc(C(=O)OC)c2ccccc21
  A = -1.6	B = 98.7	C = 86.5	D = 88.4
Cc1cc(C(=O)CCC(=O)O)ccc1F
  A = -15.3	B = 100.9	C = 78.0	D = 90.8
O=C1Nc2ccccc2C(=O)C1=Ic1ccccc1
  A = -38.3	B = 98.4	C = 81.6	D = 73.2
Cc1cccc(NC(=O)C2CCN(S(=O)(=O)c3cc(-c4noc(C5CCC5)n4)sc3C)CC2)n1
  A = -8.6	B = 106.7	C = .	D = .
CN(C)C(=O)COC(=O)c1ccc(-c2ccc(C(=O)OCC(=O)N(C)C)s2)s1
  A = -22.9	B = .	C = 100.4	D = 96.9
O=C(NNc1ccccc1C(F)(F)F)c1cccs1
  A = -8.8	B = 102.6	C = 91.3	D = 82.1
Cc1cc(Sc2ccccc2NC(=O)c2ccccc2Br)n2ncnc2n1
  A = -27.6	B = 104.9	C = .	D = .
CC(=O)Nc1nc(CC(C)C)cc(-c2ccco2)c1C#N
  A = -30.8	B = 102.5	C = 91.0	D = 82.0
CC1=CC(C)C(C2OC(C)C(C)O2)C(C)C1 (stereo unspecified)
  A = -27.5	B = 100.5	C = 83.2	D = 86.7
Cc1ccc(N=C2SC(C(=O)Nc3cccc(C#N)c3)C(N)=C2C(=O)N2CCCC2)c(C)c1 (stereo unspecified)
  A = -21.9	B = .	C = 111.1	D = 82.4
CSCCC(NS(=O)(=O)c1ccc2c(c1)oc(=O)n2C)C(=O)N1CCN(c2ccc(C(C)=O)cc2)CC1 (stereo unspecified)
  A = .	B = 102.4	C = 96.5	D = 95.6
O=C(CCn1ccc2cc(S(=O)(=O)N3CCCC3)ccc21)NCc1cccc(Cl)c1
  A = .	B = 98.6	C = 111.9	D = 93.4
Cc1ccc2ncc(C(=O)Nc3ccc(OC(F)(F)F)cc3)c(=O)n2c1
  A = -15.0	B = 98.9	C = 105.5	D = 90.6
Nc1ccc(NS(=O)(=O)c2ccccc2)cc1
  A = .	B = 100.2	C = 109.4	D = 88.1
COc1ccc(C(=O)N2CCc3cc(OC)c(OC)cc3C2COc2ccc3c(C)cc(=O)oc3c2)c(OC)c1 (stereo unspecified)
  A = 6.7	B = 103.5	C = 103.8	D = 89.2
CCOc1ccc2oc(=O)cc(CN3CCN(C(=O)c4ccc(OC)c(OC)c4)CC3)c2c1
  A = -3.2	B = 102.7	C = 97.6	D = 70.0
O=C(O)c1[nH]c2ccccc2c1C=NCc1ccccc1Cl
  A = .	B = 104.7	C = 125.2	D = 84.0

Two entries from above, with two lines to a compound.
Below each compound: HCMV UL50-53 inh	GIV-Gai inh	Sa growth 42C	Sa growth 42C second temp
Cc1nc(N2CCCC(C(=O)NC3CCS(=O)(=O)C3)C2)c2c(C)c(C)oc2n1 (stereo unspecified)
 : -14.6	100.7	.	.
CCCn1c(CNC(=O)CC)nc2ccccc21
 : .	99.5	103.8	86.8

More entries follow:
Assay codes: A = HCMV UL50-53 inh; B = GIV-Gai inh; C = Sa growth 42C; D = Sa growth 42C second temp
Cc1nn(C(=O)CCN2C(=O)c3ccccc3C2=O)c(C)c1Br
  A = -9.1	B = 101.1	C = .	D = .
Cn1c2ccccc2c2c(C(=O)NCc3ccco3)cn(C3CCCCC3)c(=O)c21
  A = -18.1	B = 96.7	C = 99.5	D = 82.7
CN(CCc1noc(COc2ccccc2)n1)S(C)(=O)=O
  A = 15.2	B = 104.9	C = .	D = .
CNc1ccc(O)cc1
  A = 68.9*	B = .	C = 102.8	D = 36.1
Cc1onc(-c2ccccc2Cl)c1C(=O)N1CCN=C1SCc1ccccc1F
  A = -23.7	B = 97.0	C = 90.4	D = 87.9
O=C(CSc1cccc[n+]1[O-])N1c2ccccc2Sc2ccccc21
  A = 0.1	B = .	C = 102.5	D = 84.5
CCc1ccc(NC(=O)c2cc3c(=O)n(Cc4cccnc4)ccc3nc2C)cc1
  A = .	B = 99.0	C = 92.0	D = 94.4
O=C1OCCC1Sc1nc2ccccc2[nH]1 (stereo unspecified)
  A = 7.4	B = .	C = 108.7	D = 93.2
CCOC(=O)Cn1c(=O)c(-c2nc(C(C)(C)C)cs2)cn(C(C)C)c1=O
  A = -36.4	B = 106.2	C = 96.5	D = 81.0
CC(=O)N1CC(=O)N/C(=C\c2cccnc2)C1=O
  A = -22.5	B = 104.9	C = 99.6	D = 91.8
COc1ccccc1C(=O)Nc1nnc(S(=O)(=O)N2CCCCCC2)s1
  A = -4.4	B = 99.8	C = 95.5	D = 75.5
Cc1ccccc1NC(=O)Cn1c(=O)n(C2CCCCC2)c(=O)c2cccnc21
  A = 2.5	B = 104.9	C = 98.0	D = 94.5
Cc1ccc(-c2ccc(=O)n(C(C)C(=O)Nc3ccccc3)n2)cc1S(=O)(=O)N1CCCCC1 (stereo unspecified)
  A = -24.3	B = 94.8	C = .	D = .
O=C(NCc1ccco1)c1ccc(CSc2nc3ccncc3n2Cc2ccccc2)cc1
  A = -4.0	B = 104.0	C = 106.1	D = 90.5
CC(C)(C)NC(=O)c1sccc1C(=O)O
  A = .	B = 101.0	C = 108.2	D = 87.0
